# From PubChem BioAssay
# Arbovirus anti = blocks arbovirus infection | inhibition, % at 10 µM | 0.37% of 200,000 active | arbovirus infection cell-based antiviral screen;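 active = inhibition from about 30%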;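 also: bluetongue infection of BSR cells; cell survival read as ATP light after 72 h; 0% = infected wells without compound and 100% = uninfected wells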
# Mtb betalactam = beta-lactam sensitization of Mtb H37Rv; inhibition, % at 25 µM; M. tuberculosis H37Rv growth with meropenem, percent inhibition; hits of this screen are not shown here; AID 434955; 0.27% of 330,000 active;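 active = about 74% or more and at least 40 points above the plate without the antibiotic, then above 30% in a dose series; inconclusive = first-round hits that could not be retested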;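 also: growth measured after seven days incubation then overnight dye step; 0% = bacteria only wells and 100% = bacteria with antibiotic; twin plates without the antibiotic show which effects depend on it; some results filed as inactive read as strong as hits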
# Mtb growth = M. tuberculosis H37Rv growth inhibitors, H37Rv strain (AID 1626) | M. tuberculosis H37Rv growth inhibition; higher % means a stronger effect | inhibition, % at 10 µM, or IC50 in µM where a hit was titrated | 0.95% of 220,000 active;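 active = confirmed in a dose series; inconclusive = inhibition above 80% but not taken into the dose series; inactive = below 80% or under 30% at every dose of the series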;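 also: bacteria incubated seven days before Alamar blue readout; 0% = bacteria only wells and 100% = bacteria with antibiotic wells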
# RecA splice inh = blocks M. tuberculosis RecA intein splicing. P9WHJ3. cell-free RecA intein splicing, fluorescence. inhibition, %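 (about 9 µM by stock and volumes)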. 0.75% of 290,000 active; in the data active = inhibition above about 30%; inconclusive = no clear call, values can overlap the other calls;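 also: 0% = vehicle wells and 100% = reference inhibitor control wells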
# Target sequence (P9WHJ3 whole entry, looked up, canonical isoform): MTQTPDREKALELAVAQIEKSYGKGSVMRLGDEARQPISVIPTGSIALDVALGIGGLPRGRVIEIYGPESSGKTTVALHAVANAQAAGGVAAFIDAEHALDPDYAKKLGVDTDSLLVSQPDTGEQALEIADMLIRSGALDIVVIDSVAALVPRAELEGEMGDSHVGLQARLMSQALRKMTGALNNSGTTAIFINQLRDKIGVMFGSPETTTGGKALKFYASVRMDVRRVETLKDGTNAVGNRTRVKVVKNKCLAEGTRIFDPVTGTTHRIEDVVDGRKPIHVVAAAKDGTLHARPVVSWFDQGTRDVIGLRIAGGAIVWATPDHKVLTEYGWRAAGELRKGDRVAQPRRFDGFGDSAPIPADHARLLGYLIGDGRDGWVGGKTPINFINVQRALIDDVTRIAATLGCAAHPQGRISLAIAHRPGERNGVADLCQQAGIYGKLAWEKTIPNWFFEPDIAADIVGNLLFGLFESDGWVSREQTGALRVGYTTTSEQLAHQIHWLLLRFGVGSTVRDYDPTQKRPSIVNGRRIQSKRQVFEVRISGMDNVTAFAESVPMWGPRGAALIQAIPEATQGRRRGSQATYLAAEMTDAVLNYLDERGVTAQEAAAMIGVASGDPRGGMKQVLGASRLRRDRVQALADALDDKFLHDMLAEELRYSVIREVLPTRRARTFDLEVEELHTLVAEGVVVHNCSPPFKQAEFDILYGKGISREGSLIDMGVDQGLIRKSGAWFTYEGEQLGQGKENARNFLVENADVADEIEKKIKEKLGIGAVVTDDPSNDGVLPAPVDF
# YopH inh = blocks Yersinia enterocolitica YopH tyrosine phosphatase; fluorescence Ex485/Em525; inhibition, %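 (about 10 µM by stock and volumes)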; 0.16% of 140,000 active;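 active = inhibition of 50% or more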;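 also: controls were vehicle for no effect and minimum signal wells for full effect; inactives centre near -20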
# Arbovirus anti repeat = also measured in Arbovirus anti; calls as there; inhibition, %; measured here: 10K subset replicate screen; many hits read low in the repeat;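 first of two repeat runs on a subset; 0% = infected and 100% = uninfected wells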
# * hit, by the source's call; ? = inconclusive; / = not tested or not shown. Some of the compounds tested; the hit share may differ from the screen's.
SMILES,Arbovirus anti,Mtb betalactam,Mtb growth,RecA splice inh,YopH inh,others
Cc1cc(OC(C)C(=O)NCC(O)c2ccccc2)c2c(C)c(C)c(=O)oc2c1 (stereo not given),/,1,/,3.8,/,
N#Cc1ccccc1NC(=O)CC1CCCCC1,5,-5,-3%,2.0,-15,
Cc1ccccc1Nc1nc(N)nc(COC(=O)c2cccc(S(=O)(=O)NCc3ccccc3)c2)n1,1,0,15%,-3.5,-27,
Cc1nc(-c2ccc(S(=O)(=O)N3CCOCC3)cc2)cs1,/,-7,/,-1.0,/,
Cc1ccc(-c2nc(C)sc2CC(=O)OCC(=O)Nc2ccc(F)c(Cl)c2)cc1,/,-5,/,-0.8,/,
O=C(NCCN1CCOCC1)c1cc(Br)ccc1Cl,/,-17,/,1.4,/,
Cn1c2c(c(=O)n1-c1ccccc1)CSCC2,/,-15,/,9.8,/,
CCN(C(=O)CSc1nnc(Cn2nnc3ccccc32)o1)c1nc(C)cs1,-1,0,/,-0.1,-29,
FC(F)(F)c1ccccc1CCN1CCNCC1,/,-4,/,-2.7,/,
C[C@H](NC(=O)c1nc[nH]c1C(=O)NCC(=O)OCc1ccccc1)c1ccccc1,/,4,/,4.7,/,
O=C(c1ccc(NC(=S)NCc2ccco2)cc1)N1CCCCC1,2,-4,-7%,0.1,/,
Cc1ccccc1N1CCN(C2CCCN(C(=O)c3snnc3C)C2)CC1 (stereo not given),/,-14,/,-5.5,/,
CCC1COCCS(=O)(=O)N1Cc1cccc(C(F)(F)F)c1 (stereo not given),/,8,/,-0.6,/,
O=C(CCc1ccccc1)NCc1ccc2c(c1)OCO2,/,3,/,1.4,/,
O=C(c1csc2c1CCCC2)n1cccn1,-6,/,/,-0.2,/,Arbovirus anti repeat=3
CCOC(=O)C1=C(C)NC2=C(C(=O)CC(C)(C)C2)C1c1ccc2c(c1)CCCN2C (stereo not given),8,12,9%,-10,16,
CC1SC(c2ccc(Cl)cc2)NC1=O (stereo not given),3,-14,-7%,-1.7,-21,
C[C@@H](NC(=O)OC(C)(C)C)c1nnc(S(=O)(=O)Cc2ccccc2)o1,/,57,-3%,20,/,
Cc1nn(C)c(C)c1CCC(=O)NC1CC(C)(C)Cc2c1cnn2-c1ccccc1 (stereo not given),/,-5,/,1.2,/,
CC(Sc1nnc2ccccn12)C(=O)Nc1ccc(Cl)cn1 (stereo not given),1,-1,-14%,-0.7,-34,
CCN1CCN(CC(=O)Nc2ccc3c(c2)OCO3)C(=O)C1=O,3,4,-4%,0.3,-44,Arbovirus anti repeat=0
Cc1ccc([N+](=O)[O-])cc1S(=O)(=O)n1ccnc1C,1,5,-2%,-0.5,/,
Cc1ccc(C2CC(c3cccc(C)c3)n3ncnc3N2)cc1 (stereo not given),-11,8,7%,0.9,-53,Arbovirus anti repeat=-7
CCCCNCc1cc(OC)c(OCC(N)=O)cc1Br,0,0,-5%,0.4,-23,
Cc1ccc(OCCCn2c(=O)oc3ccccc32)cc1,3,73,45%,2.5,/,
Cn1c(=O)c2c(ncn2CC(=O)OCC(=O)Nc2cc(Cl)ccc2Cl)n(C)c1=O,-12,-1,3%,0.3,-15,
CC1CC(C)CN(CCCNC(=O)c2csc3c2CCCC3)C1 (stereo not given),-8,?,-1%,0.9,-14,
O=C(O)CSCC(=O)N1CCCN(c2nccc(C(F)(F)F)n2)CC1,/,-1,/,-0.1,/,
CC1CCCN(S(=O)(=O)c2ccc(C(=O)Nc3sc4c(c3C(N)=O)CCN(C)C4)cc2)C1 (stereo not given),/,-1,/,-7.5,/,
COc1ccc(C(=O)Nc2cccc(-c3ccc4nncn4n3)c2)cc1,4,4,-1%,-2.5,/,
CSc1ccccc1C(=O)C1CCCN(C(=O)c2cncs2)C1 (stereo not given),/,4,/,2.6,/,
Cc1c(C(=O)NNc2c(Cl)cccc2Cl)n(C)oc1=O,/,-3,-6%,-4.2,/,
COc1cccc(OC)c1C(=O)Nc1ccc(NC(=O)c2ccco2)cc1,3,-8,-2%,-0.4,-15,
O=C1C(Cc2ccc(Br)cc2)SC(=Nc2ccccc2)N1c1ccccc1 (stereo not given),-12,11,24%,5.4,-18,
CCc1ccc(NC(=O)CO/N=C(\C)c2cc3ccccc3o2)cc1,-2,99,?,1.6,-8,
COc1ccc(OC)c(NC(=S)NCc2cccs2)c1,2,-7,2%,0.2,-32,
CN(O)/C=C1\C(=O)Nc2ccccc21,-6,-10,-4%,-6.0,-8,
O=C1NC(=O)C(CC(=O)N(Cc2cccs2)C2(C(=O)NC3CCCC3)CCCCC2)N1 (stereo not given),-2,0,-6%,-2.6,-21,
O=C(Nc1ccc(NC(=O)c2ccc(S(=O)(=O)c3ccccc3)cc2)cc1)c1ccccc1,0,2,/,0.1,-13,
Cc1ccc(NC(=O)c2ccc(COc3ccccc3)o2)nc1,/,4,/,-2.0,/,
CSCCC(NC(=O)COc1ccccc1)C(=O)N1CCCC(C(F)(F)F)C1 (stereo not given),/,1,/,-0.7,/,
CCOc1ccc2nc(NC(=O)C3CCCO3)sc2c1 (stereo not given),-4,78,59%,-1.9,/,
O=C(NC1CCN(S(=O)(=O)c2ccccc2F)CC1)c1cccnc1,/,-2,/,-0.5,/,
O=C(Cn1cnnn1)NCc1ccccc1,/,-6,/,-1.6,/,
Cc1ccc(OCCC(=O)Nc2ccc(F)c(Cl)c2)cc1,-4,6,57%,-0.4,-52,
c1ccc2c(c1)ncc1cccn12,1,0,-3%,0.1,-48,Arbovirus anti repeat=8
COc1cc(C(=S)NCc2ccccc2)cc(Br)c1O,-5,10,3%,-4.2,/,
Cc1nnc(NC(=O)c2cc3ccccc3o2)s1,/,11,/,-1.0,/,

# Quoted from above, 3 compounds:
SMILES,Arbovirus anti,Mtb betalactam,Mtb growth,RecA splice inh,YopH inh,others
CN(O)/C=C1\C(=O)Nc2ccccc21,-6,-10,-4%,-6.0,-8,
O=C1NC(=O)C(CC(=O)N(Cc2cccs2)C2(C(=O)NC3CCCC3)CCCCC2)N1 (stereo not given),-2,0,-6%,-2.6,-21,
O=C(Nc1ccc(NC(=O)c2ccc(S(=O)(=O)c3ccccc3)cc2)cc1)c1ccccc1,0,2,/,0.1,-13,

# Further structures follow:
SMILES,Arbovirus anti,Mtb betalactam,Mtb growth,RecA splice inh,YopH inh,others
COc1cc(C2=Nc3ccc(Br)cc3C(c3ccccc3)N2CC(=O)NN)cc(OC)c1OC (stereo not given),/,-4,7%,5.3,/,
CN(CC(=O)Nc1ccc(N2CCOCC2)cc1)CC(=O)Nc1ccccc1[N+](=O)[O-],-1,-2,-1%,-1.6,-24,
CCNc1ccc(S(=O)(=O)N(C)C)cc1NCC(=O)Nc1c(F)cccc1F,-3,4,-5%,-2.1,-15,
Oc1ccccc1-c1cc(-c2ccco2)[nH]n1,9,-5,5%,10.0,-25,
COc1cc(-c2cc(=O)c3ccccc3o2)ccc1O,-6,3,5%,-1.9,/,Arbovirus anti repeat=-5
O=C(CSc1nnc(-c2ccncc2)o1)Nc1ccccc1Cl,5,-11,-3%,1.6,-35,
COc1ccc(Nc2nnc(SCC(=O)N3CC(=O)Nc4ccccc43)s2)cc1,-2,-1,-2%,-0.9,/,
Cc1ccc(CNC(=O)C(CC(C)C)OC(=O)c2ccco2)cc1 (stereo not given),/,-1,/,-3.0,/,
Cc1cc(C2=NNC(=NC3CC3)SC2)c(C)n1-c1ccccc1F,4,98,-4%,2.0,-23,
CC(Oc1cccc(Cl)c1)C(=O)Nc1cc(S(=O)(=O)N2CCOCC2)ccc1N1CCCCC1 (stereo not given),/,-6,/,7.4,/,
O=P(c1ccccc1)(c1ccccc1)c1nc(-c2ccc(Cl)cc2)oc1N1CCOCC1,-20,-5,19%,8.2,/,
COc1ccccc1-c1nnc(NC(=O)C2=COCCO2)o1,-3,94,9µM*,-3.6,-13,
O=C(Nc1cccc(Cl)c1)ON=C1c2ccccc2-c2ccccc21,11,90,1%,7.2,-35,
Cc1cccc(C)c1NC(=O)C[N+](C)(C)CC(O)COc1cccc2ccccc12 (stereo not given),4,49,2%,1.5,/,
CC(C)c1ccc(NC(=O)C(c2ccccc2)N2CCOCC2)cc1 (stereo not given),4,2,3%,0.4,-33,Arbovirus anti repeat=-1
CSC1=NCCN1C(=O)c1ccc(C)cc1,-3,-1,5%,-3.1,/,
COc1cccc(CN2CCN(Cc3cc4ccccc4[nH]3)CC2CCO)c1 (stereo not given),/,-6,3%,1.9,/,
O=C1N(Cc2cccc(Cl)c2)C[C@@H]2C[C@@H](c3cccn3-c3ccccn3)N3CCC[C@@]123,-8,-5,-8%,5.2,/,
CN(Cc1nc2ccc(F)cc2[nH]1)Cc1nc(CC2CC2)no1,5,-4,-1%,0.1,/,
COC1CCN(Cc2c(C(=O)N3CCN(C4CCCCC4)CC3)nc3ccccn23)CC1,/,2,/,-0.1,/,
OC(COCc1ccccc1)CN1CCN(c2ccccc2)CC1 (stereo not given),3,-4,11%,-1.2,-5,
CCOC(=O)N1CCN(S(=O)(=O)N(C)C)CC1,0,0,-4%,3.0,-30,
CCc1ccc(C(C)NC(=O)c2ccc(F)cc2)cc1 (stereo not given),3,-4,1%,-4.0,-2,
CCc1ccc(-c2cc(C)no2)cc1S(=O)(=O)NCCN1CCC(C)CC1,/,0,/,0.0,/,
CC(NC(=O)c1cc(-c2ccncc2)nc2ccc(Br)cc12)C1CCCO1 (stereo not given),/,3,/,4.5,/,
Cc1cc2ccccn2c1C(=O)c1ccccc1Br,/,-6,/,10,/,
CCCCSc1cc(C)nc2ncnn12,-8,-7,-9%,0.4,-10,
C=C(C)Cn1c(CCCNC(=O)C(C)(C)C)nc2ccccc21,7,-4,-9%,4.7,-15,
CC(C)(CC(=O)OCC(=O)Nc1ccccc1F)CC1=NS(=O)(=O)c2ccccc2N1,/,-9,/,-4.2,/,
CC(C)n1cc(CNC(=O)C2CCC(=O)N(Cc3ccccc3F)C2)cn1 (stereo not given),/,-1,/,-6.0,/,
NC(=O)C1CCN(c2ncc(C(F)(F)F)cc2Cl)CC1,0,0,6%,-0.3,/,
CN(C)C(=O)c1cc(Br)ccc1Cl,9,-27,-2%,2.5,-22,
COc1ccc(CN(CC(=O)NCc2ccccc2)C(=O)CCC(=O)Nc2cc(C)ccn2)cc1,/,-7,/,-2.3,/,
O=C(c1cccs1)N1CCc2c([nH]c3ccccc23)C1c1ccccn1 (stereo not given),0,3,-4%,3.4,/,
O=C(CSc1nnc(-c2cccnc2)o1)Nc1ccc(Br)cc1,/,-6,/,0.6,/,
COc1ccc(NC(=O)CN2C(=O)c3ccccc3Sc3ccc(C(=O)N4CCOCC4)cc32)c(OC)c1,1,-9,-1%,-2.1,/,
CCCC(=O)OCC(=O)Nc1cc(Cl)ccc1[N+](=O)[O-],22,-9,-3%,3.2,/,
Cc1cc(C)c(NC(=O)CSc2nc(=O)n3cc(C)ccc3n2)c(C)c1,/,2,/,-1.7,/,
Cc1nnsc1C(=O)N/N=C/c1ccccc1Cl,/,4,0%,0.7,/,
C=CCn1c(O)c(C=Nc2ccc(Cc3ccncc3)cc2)c(=O)[nH]c1=S,8,39,6%,-1.1,-28,
O=C1SCCc2c1n(Cc1ccccc1)c1ccccc21,-12,4,7%,/,-13,
CCCOc1ccc(C2=CSC3=NCCN23)cc1,/,-8,/,-2.6,/,
Cc1ccc(NC(=O)/C=C/c2ccco2)cc1S(=O)(=O)N1CCCCCC1,/,0,/,4.2,/,
O=C(CSc1nnc2n1CCCCC2)Nc1ccc(N2CCOCC2)cc1,/,-2,-9%,-4.5,/,
Cc1ccn(-c2cccc(-n3ccc(C)n3)n2)n1,9,-1,5%,2.6,-24,
N#C/C(=C\c1ccc(O)cc1)C(=O)NCc1ccccc1,/,-6,/,2.0,/,
CC(O)Cn1c(N2CCCC2)nc2c1c(=O)[nH]c(=O)n2C (stereo not given),/,4,/,0.5,/,
CC(OC(=O)CCOc1ccccc1)C(=O)NC1CC1 (stereo not given),/,-2,/,0.2,/,
Cc1nnc(N2CCN(Cc3ccccc3)CC2)[nH]c1=O,7,0,-8%,-3.0,-6,
CCCCCSc1cc(OC)c(CCN(C)C)cc1OC,-14,2,4%,1.6,8,
Cc1ccc(C(=O)N2CCN(S(=O)(=O)c3ccccc3)CC2)cc1,6,0,2%,0.3,/,
CC(C)(C)N1CC(C(=O)Nc2ccc(C#N)cc2)CC1=O (stereo not given),/,-2,/,-0.1,/,
CCn1ncc(Br)c1C(=O)Nc1ccccc1OC,-2,2,-11%,0.1,/,
Cc1cccc(NC(=O)c2ccc(COc3ccc(Cl)cc3Cl)o2)n1,-26,-9,0%,2.3,-42,
Cc1cccc(N2CCN(C(=O)c3cc(S(=O)(=O)N(C)C)ccc3N3CCCC3)CC2)c1C,-11,21,59%,-3.2,/,
